Compound activity deposited in PubChem by National Center for Advancing Translational Sciences (NCATS).
TRPV1 potentiator = potentiators of human vanilloid receptor 1 (TRPV1); AID 540277; potentiation, % at 8.33 µM; 0.02% of 320,000 active; TRPV1-expressing cells, Fluo-8 calcium influx, capsaicin EC20 potentiation; host cell line not named in the record; control for the full effect not named in the record; Q8NER1; active means potentiation above 80%; inconclusive means 30% to 80%; inactive means below 30%; further: 0% is about no effect
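Fluo-8 calcium influx in TRPV1-expressing cells, kinetic read (ex 480/em 520 nm). Compound added and read 3 min for agonist activity, followed by capsaicin at EC20 final and 2 min further read for enhancement.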
Sfp inh = blocks B. subtilis Sfp PPTase activity; Q9F4F7; Biochemical Sfp PPTase activity, qHTS; Potency, µM, without a hit: max response, negative = inhibition, usual class: inhibitors; 3.5% of 310,000 active; active means well fitted inhibition curve with a large enough effect; inconclusive means small, poorly fitted or top-dose-only effect, or another doubt; inactive means no such curve, though single readings can be large or run the other way;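 further: the enzyme is Sfp with the accession as filed and its product quenches rhodamine fluorescence; potency means the concentration at half of the fitted maximal effect; 0% = enzyme reaction without inhibitor and -100% = no enzyme wells; top concentration of the series not given in the record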
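Fluorescence-quenching assay: 15 nM Sfp-PPTase preincubated 15 min at room temperature with compound, then 5 uM rhodamine-CoA and 12.5 uM BHQ-2-labelled YbbR peptide added. Fluorescence (ex 525/em 598 nm) read at start and after 30 min; difference gives rate.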
D2 potentiator = human D2 receptor positive allosteric modulation; P14416; DiscoveRx D2 beta-arrestin cells, luminescence, 90 min; 100% = 57 uM dopamine signal; potentiation, % (test concentration not listed); 0.23% of 360,000 active; active = potentiation of 50% or more; inconclusive = 30% to 50%; inactive = 30% or less;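 further: compound concentration not given in the record; tested on top of an EC20 dose of dopamine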
Target sequence (P14416 whole entry, looked up): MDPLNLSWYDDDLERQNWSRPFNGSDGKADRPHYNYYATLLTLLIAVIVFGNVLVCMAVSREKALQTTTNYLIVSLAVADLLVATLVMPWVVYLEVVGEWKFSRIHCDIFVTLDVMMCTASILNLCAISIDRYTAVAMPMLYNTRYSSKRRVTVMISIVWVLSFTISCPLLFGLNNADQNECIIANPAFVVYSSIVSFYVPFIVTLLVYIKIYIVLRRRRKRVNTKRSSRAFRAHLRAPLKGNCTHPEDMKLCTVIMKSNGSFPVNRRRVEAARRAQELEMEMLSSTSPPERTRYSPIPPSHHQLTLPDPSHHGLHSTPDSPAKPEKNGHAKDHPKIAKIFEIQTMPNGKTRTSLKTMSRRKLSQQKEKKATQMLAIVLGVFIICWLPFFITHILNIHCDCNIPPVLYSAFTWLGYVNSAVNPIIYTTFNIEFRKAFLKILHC
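D2 cells co-treated with compound plus 50 nM dopamine (EC20) for 90 min at 37 deg C to detect potentiation. Beta-arrestin recruitment was read as enzyme-fragment luminescence after 1 h at ambient temperature. Full response was set by 57 uM dopamine.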
CtBP-E1A inh = CtBP/E1A binding inhibition; AlphaScreen GST-E1A/His-CtBP binding, 1536-well; hits give low values; control for the full effect not named in the record; activity change, % (test concentration not listed); 0.49% of 340,000 active; AID 651724; in the data active means activity change below about -65%; inconclusive means about -30% to -65%; inactive means above about -30%; further: on the % scale 0 is the no-effect control and ±100 the full control effect; compound concentration not given in the record
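AlphaScreen with 125 nM GST-E1A and 125 nM His-CtBP (5X stocks) in Tris pH 8.0, 300 mM NaCl, BSA, Tween 20, TCEP. Compounds preincubated 2 h at 37 deg C, then glutathione donor/nickel acceptor beads added for 1 h at 37 deg C in dark.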
PINK1 expr mod = PINK1 expression modulation. AID 624263. PINK1 immunofluorescence, high-content cytometry, 24 h. Potency, µM (series often up to 76.6 µM), without a hit: at the highest dose activation (PINK1 increase), hits mostly activators. 0.2% of 410,000 active; active = well fitted activation curve with a large enough effect; inconclusive = small, poorly fitted or top-dose-only effect; inactive = flat fitted curve, though single readings scatter; cell line not stated here;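 further: potency means the concentration at half of the fitted maximal effect; % of control where 0% means no effect; nearly all actives have a fitted effect of over 65% in size; a mitochondrial uncoupler was the plate control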
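Cells are seeded, rested 12 hours, then given compound at five concentrations or DMSO for 24 hours. After fixation, blocking and antibody staining, PINK1 amount and mitochondrial localization are scored; CCCP serves as control.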
Six1-Eya2 inh = inhibitors of human Six1/Eya2 interaction; Q15475+O00167; AlphaScreen GST-Six1/His-Eya2 binding, biochemical; hits give low values; control for the full effect not named in the record; activity change, % (test concentration not listed); 0.56% of 360,000 active; AID 651725; in the data active = activity change below about -65%; inconclusive = about -30% to -65%; inactive = above about -30%; further: on the % scale 0 is the no-effect control and ±100 the full control effect; compound concentration not given in the record
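Homogeneous AlphaScreen proximity assay pairing GST-Six1 with His-tagged Eya2 (added as 5X mix: 250 nM and 500 nM) in 50 mM Tris pH 8.0, 300 mM NaCl, 1 mM TCEP. Glutathione donor and nickel acceptor beads; 1 h, 37 °C, dark.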
D2 ag = activates the human D2 dopamine receptor. DiscoveRx PathHunter D2 beta-arrestin, luminescence, 90 min; 100% = 57 uM dopamine signal. activation, % (test concentration not listed). 0.084% of 360,000 active; in the data active = activation above about 40%; inconclusive = about 15% to 40%; inactive = below about 15%; further: compound concentration not given in the record; the text of the record calls up to 30% inactive
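DiscoveRx PathHunter D2 beta-arrestin cells (2,100/well) attached overnight, then compound-stimulated 90 min at 37 C in HBSS/10 mM HEPES/0.1% Tween-20 buffer; beta-galactosidase complementation read by luminescence after 1 h at ambient temperature. Dopamine 57 uM final (EC100) as control.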
* hit, by the source's call; ? = inconclusive; nt = not tested or not shown; & = joins results of further samples; [ ] = dose if it differs, or a comment.

SMILES | TRPV1 potentiator | Sfp inh | D2 potentiator | CtBP-E1A inh | PINK1 expr mod | Six1-Eya2 inh | D2 ag
COc1ccccc1NS(=O)(=O)c1cc(NC(=O)CCNC(C)=O)ccc1C | -9 | 10% | -5 | 14 | 5.0% | -16 | -1.5
Cc1onc(-c2ccccc2)c1CNS(=O)(=O)c1cccc(Br)c1 | 21 | -5% | -5 | -2 | 2.5% | -5 | 6.1
CCOc1ncccc1-c1nc(-c2cccs2)no1 | 5 | 1% | -7 | 9 | -1.3% | 20 | 1.8
CCOC(=O)C1=C(O)/C(=C/c2ccc(OCC(=O)O)c(OCC)c2)SC1=Nc1ccc(OC)cc1 | 12 | 13% | -16 | -4 | -0.1% | 15 | -4.1
CCN(CC)c1ccc(C2C3CCCCC3(O)CCN2CC(=O)N2CCCCC2)cc1 (stereo not given) | -4 | -2% | 0 | -6 | -1.9% | -11 | -3.6
CCc1nnc(NC(=O)CSc2nnc(-c3cccnc3)n2C)s1 | -4 | 13% | -5 | 1 | 0.2% | -2 | -5.3
CC(=O)Nc1ccc(NC(=O)CN(C)S(=O)(=O)c2ccc3c(c2)CCC(=O)N3)cc1 | -6 | 6% | -6 | 4 | -0.1% | 0 | -5.0
CCOc1ccccc1OCCCC(=O)N1CCN(S(=O)(=O)c2ccc(C)cc2)CC1 | 5 | 2% | -13 | -3 | -2.5% | -1 | -1.5
CC(C)C(=O)c1cn(CC(=O)N2CCCc3ccccc32)c2ccccc12 | ? | -3% | -2 | 7 | -5.7%[38.3 µM] | 0 | -3.7
NC(=O)c1ccsc1NC(=O)COC(=O)COc1ccccc1F | 0 | 15% | 2 | 1 | 2.7% | -5 | 0.6
Cc1ccc(P(=O)(CSC(=N)N)c2ccc(C)cc2)cc1 | -1 | 26% | -12 | 1 | 11% | -3 | -4.6
COC(=O)Cc1cc(=O)[nH]c(/N=C(\N)Nc2cccc(C)c2)n1 | 1 | 9% | -4 | -20 | 0.4% | -1 | -7.3
COc1cc(C#N)c(NS(=O)(=O)c2ccc3[nH]c(=O)sc3c2)cc1OC | 5 | 10% | -6 | -6 | -0.2% | 1 | 1.2
CCc1cc(C)c(O)c(CC)n1 | -2 | 6% | -5 | 4 | -2.0% | -1 | -2.8
COc1ccc(CN(C)C(=O)c2cccc(NC(=O)CC3SC(N4CCCCC4)=NC3=O)c2)c(OC)c1 (stereo not given) | nt | nt | 9 | -3 | -0.2% | 1 | 4.7
COC(=O)c1[nH]c2cc(C)ccc2c1NC(=O)CN1CCN(c2ccccc2OC)CC1 | 2 | 2% | -35 | -8 | -2.3% | -23 | -4.3
CC(C)c1ccc(NC2CCCN(C(=O)c3ccoc3)C2)cc1 (stereo not given) | -7 | 10% | -10 | nt | 0.9% | -6 | 3.8
CCN(CC(=O)NCc1ccc(F)cc1)C(=O)C1CCN(S(=O)(=O)c2ccc(C(C)C)cc2)CC1 | -2 | nt | 10 | -6 | 4.8% | 2 | 0.7
COc1ccc(CN2CCN(Cc3cc(=O)oc4cc(C)ccc34)CC2)c(OC)c1OC | 2 | 2% | -10 | -1 | -1.3%&-0.5% | 0 | -0.1
COc1ccc(C(=O)Nc2nnc(SCC(=O)NCC3CCCO3)s2)cc1OC (stereo not given) | 6 | 2% | 1 | -2 | 2.0% | 1 | -12
CC(C)c1ccc(NC(=O)C2CCN(C(=O)[C@@H]3Cc4ccccc4CN3)CC2)cc1 | -5 | 0% | -18 | -20 | 1.2% | -3 | -2.8
C=CCc1ccccc1Oc1cc(F)nc(N)n1 | -4 | 18% | 0 | -4 | 3.6% | 8 | 8.2
COC(=O)[C@H](CC(C)C)NC(=O)/C=C/[C@H]1O[C@@H](n2cc(C)c(=O)[nH]c2=O)C[C@@H]1O | nt | nt | -6 | 10 | 1.6% | 3 | -7.0
Cc1cc(Br)ccc1OCC(=O)N1CCCCCC1 | -20 | -2% | 3 | 1 | -0.2% | 0 | -1.3
O=C(CN1CCCCC1)N/N=C/c1ccccc1OCc1ccccc1 | -1 | -5% | -12 | 11 | 10.0% | -7 | -2.1
CC1CN(C)C(C)C/C1=N\Oc1ccc([N+](=O)[O-])cc1 (stereo not given) | 0 | 2% | -13 | -5 | -2.6% | -11 | -1.6
Cc1ccc(CNC(=S)NCc2ccncc2)cc1 | -9 | 18% | -10 | -9 | -0.1% | 6 | -1.9
COc1ccc(OC)c(-c2cc(C(=O)N3CCCc4ccccc43)no2)c1 | 14 | 7% | 4 | 15 | 1.7%[38.3 µM] | -15 | 1.2
O=C(O)CCN1CCc2ccccc2C1c1ccncc1 (stereo not given) | 6 | 0% | -4 | nt | 0.4% | 12 | -1.3
CCOc1ccc(C(=O)Nc2cc(C)on2)cc1 | -20 | 12% | 1 | 6 | -3.3%[38.3 µM] | 5 | -0.8
Cc1cc(C(=O)COc2cccnc2[N+](=O)[O-])c(C)n1Cc1cccs1 | -7 | -10% | -12 | 2 | 2.6% | -1 | -3.4
O=C(Nc1nc(-c2ccncc2)cs1)c1ccco1 | 1 | -27% | -4 | -5 | -0.2% | -23 | -2.9
Cc1cccc(NC(=O)CNC(=O)COC(=O)c2ccc(C(C)(C)C)cc2)c1C | 4 | nt | -19 | 2 | 8.1% | 3 | -1.7
O=C(Oc1ccc2ccccc2c1)c1ccco1 | -7 | -12% | 2 | 16 | -3.0% | 15 | -3.1
Nc1nonc1C(=O)NCCNCc1c(OCc2ccccc2F)ccc2ccccc12 | -7 | ? | -14 | -6 | -2.4%[38.3 µM] | -1 | 0.5
CCS(=O)(=O)CCSc1nc2ccccc2o1 | -30 | 14% | -8 | -4 | -1.0%[38.3 µM] | 2 | -1.2
O=C1NC2(CCCCCC2)N=C1c1ccc(F)cc1 | 1 | 1% | -11 | 6 | 0.1% | 0 | -2.3
CC1Cc2ccccc2N1S(=O)(=O)c1cccc(C(=O)N2CCCCC2)c1 (stereo not given) | 7 | nt | -8 | -8 | 9.9% | -14 | -6.5
COc1cc2c(=O)n(-c3ccc(C)cc3)c(=O)n(CC(=O)c3ccc4c(c3)OCO4)c2cc1OC | 16 | 12% | -3 | -2 | 0.3% | 0 | -1.9
COCCn1c(SCC(=O)Nc2nnc(C)s2)nnc1-c1c[nH]c2ccccc12 | 5 | 15% | -2 | 0 | ? | 1 | -1.9
COc1ccc(C)cc1NC(=O)C1CC(=O)N(Cc2ccco2)C1 (stereo not given) | 4 | 2% | -14 | -2 | -0.5% | -1 | -2.5
Cc1cccc(NC(=S)NCc2ccc3c(c2)OCO3)c1C | -9 | 8% | -13 | 9 | -1.0% | 2 | 0.5
CCOC(=O)c1c(C)[nH]c(C(=O)OCC(=O)N2CCc3ccccc32)c1C | 14 | 4% | -13 | 0 | 0.6% | 1 | -1.8
CCOc1ccc(-c2cc(C(=O)Nc3ccc(F)cc3)[nH]n2)c(C)c1 | nt | nt | -9 | 0 | 3.5% | -6 | -3.6
CCOC(=O)C(C)Sc1nc(N)c(NC(=O)c2ccc(OC)c(OC)c2)c(=O)[nH]1 (stereo not given) | 9 | 18% | -7 | -2 | 0.7% | 7 | -6.2
C=CCC[C@H](Cc1ccc(F)cc1)C(=O)OC[C@H](Cc1c[nH]c2ccccc12)NC(=O)[C@@H](CC=C)CC(=O)N[C@H](CO)Cc1ccccc1 | nt | nt | -2 | nt | 8.7% | -18 | 0.3
CCc1cccc(NC(=O)C2CCCN(S(=O)(=O)c3ccc4[nH]c(=O)ccc4c3)C2)c1 (stereo not given) | -4 | 27% | -6 | -1 | 2.2% | 0 | 2.0
CC1(C(=O)NS(=O)(=O)c2ccccc2Cl)CCN1C(=O)c1ccccc1CCc1ccccc1 (stereo not given) | nt | nt | 6 | 0 | -0.5% | 0 | 2.2
O=C(Nc1nc2ccc(S(=O)(=O)N3CCCCC3)cc2s1)c1ccncc1 | 3 | 0% | 2 | 2 | 0.7% | 1 | 1.8
O=C(CSc1ccc2c(c1)OCCO2)NCc1ccco1 | 4 | 35µM* | 4 | -9 | -1.5% | 6 | 2.3
Cc1cccc(N2CCN(CC(=O)NCc3ccccc3)CC2)c1C | 6 | 12% | -70 | nt | -0.8% | -2 | -2.8
COc1ccc(-n2c(=O)c3ccccc3n(CC(=O)Nc3cccc(OC)c3)c2=O)cc1 | 4 | 16% | 3 | 3 | 2.5% | 3 | -0.2
O=c1oc(-c2cc3ccccc3o2)nc2sc3c(c12)CCCC3 | 1 | 0% | 0 | 9 | nt | 3 | -1.7

For convenience, part of the list above:
SMILES | TRPV1 potentiator | Sfp inh | D2 potentiator | CtBP-E1A inh | PINK1 expr mod | Six1-Eya2 inh | D2 ag
CCOc1ccc(-c2cc(C(=O)Nc3ccc(F)cc3)[nH]n2)c(C)c1 | nt | nt | -9 | 0 | 3.5% | -6 | -3.6
CCOC(=O)C(C)Sc1nc(N)c(NC(=O)c2ccc(OC)c(OC)c2)c(=O)[nH]1 (stereo not given) | 9 | 18% | -7 | -2 | 0.7% | 7 | -6.2
C=CCC[C@H](Cc1ccc(F)cc1)C(=O)OC[C@H](Cc1c[nH]c2ccccc12)NC(=O)[C@@H](CC=C)CC(=O)N[C@H](CO)Cc1ccccc1 | nt | nt | -2 | nt | 8.7% | -18 | 0.3
CCc1cccc(NC(=O)C2CCCN(S(=O)(=O)c3ccc4[nH]c(=O)ccc4c3)C2)c1 (stereo not given) | -4 | 27% | -6 | -1 | 2.2% | 0 | 2.0
CC1(C(=O)NS(=O)(=O)c2ccccc2Cl)CCN1C(=O)c1ccccc1CCc1ccccc1 (stereo not given) | nt | nt | 6 | 0 | -0.5% | 0 | 2.2
O=C(Nc1nc2ccc(S(=O)(=O)N3CCCCC3)cc2s1)c1ccncc1 | 3 | 0% | 2 | 2 | 0.7% | 1 | 1.8
O=C(CSc1ccc2c(c1)OCCO2)NCc1ccco1 | 4 | 35µM* | 4 | -9 | -1.5% | 6 | 2.3
Cc1cccc(N2CCN(CC(=O)NCc3ccccc3)CC2)c1C | 6 | 12% | -70 | nt | -0.8% | -2 | -2.8
COc1ccc(-n2c(=O)c3ccccc3n(CC(=O)Nc3cccc(OC)c3)c2=O)cc1 | 4 | 16% | 3 | 3 | 2.5% | 3 | -0.2
O=c1oc(-c2cc3ccccc3o2)nc2sc3c(c12)CCCC3 | 1 | 0% | 0 | 9 | nt | 3 | -1.7
